NS1 function inh: inhibitors of influenza NS1 protein function. S. cerevisiae slowed by influenza A NS1, growth recovery by OD600. Potency, µM (highest dose often 46.1 µM), inactives show at the highest dose activity, positive = more growth. actives 0.4% (n = 270,000). AID 2326; also: actives are rising curves; nearly all actives have a fitted effect of over 50% in size
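Compounds were scored for reversing the slow growth caused by influenza A NS1 in S. cerevisiae, measured by optical density at 600 nm. Assay medium contained 2% galactose at pH 6.0; NS1-free yeast of the same strain were the positive control.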
RE007 growth inh: less growth of the S. pombe RE007 Vpr strain; S. pombe RE007 Vpr strain, BacTiter-Glo ATP luminescence, 24 h; control for the full effect not named in the record; Potency, µM (highest dose often 92.2 µM), for the others: top-dose activity change, negative = less growth; actives 0.21% (n = 360,000); AID 651644; active = well fitted falling curve with a large enough effect; inconclusive = small, poorly fitted or top-dose-only effect; inactive = no such curve, though single readings can be large or run the other way;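 also: % is scaled to controls: 0 for no effect and ±100 for the full control effect; nearly all actives have a fitted effect of over 50% in size; the assay follows cell death caused by Vpr and the record does not say whether a fall means rescue or toxicity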
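Fission yeast RE007 carrying one integrated HIV-1 vpr copy, seeded at OD 0.01 in PMG+AL medium with 23 nL pinned compound. Grown 24 h at 30 degrees; viability read by BacTiter-Glo luminescence after 5 min.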
2A StopGo: FMDV 2A StopGo reporter, luciferase signal | actives 1.2% (n = 410,000) | human cells with a luciferase reporter of 2A StopGo recoding; control for the full effect not named in the record | AID 1159524 | Potency, µM (series often up to 57.9 µM), without a hit: top-dose signal change, negative = less light; active = well fitted falling curve with a large enough effect; inconclusive = small, poorly fitted or top-dose-only effect; inactive = no such curve, though single readings can be large or run the other way; tested in HEK293T cells; also: % is scaled to controls: 0 for no effect and ±100 for the full control effect; nearly all actives have a fitted effect of over 45% in size; luciferase light after 4 h
LASV entry inh: blocks Lassa virus binding to or entry into cells | Lassa virus pseudotype entry inhibition, cell reporter; control for the full effect not named in the record | Potency, µM (highest dose often 37.9 µM), for the others: top-dose activity change, negative = inhibition, actives largely listed as inhibitors | actives 1.2% (n = 300,000); active means well fitted inhibition curve with a large enough effect; inconclusive means small, poorly fitted or top-dose-only effect, or effect the other way; inactive means flat fitted curve, though single readings scatter; tested in HEK293 cells; also: % is scaled to controls: 0 for no effect and ±100 for the full control effect; nearly all actives have a fitted effect of over 50% in size; luciferase read-out
Cruzain inh Det: blocks cruzain activity in presence of Triton detergent; P25779; purified cruzain, Z-FR-AMC fluorescence, 0.01% Triton; Potency, µM, for the others: max response, negative = inhibition, actives largely listed as inhibitors; actives 0.43% (n = 200,000); AID 1478; active = well fitted curve in the direction sought with a large enough effect; inconclusive = small, poorly fitted or top-dose-only effect, or another doubt; inactive = no such curve, though single readings can be large; an effect the other way counts as inactive or inconclusive;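 also: plate controls were neutral wells for no effect and buffer without enzyme for full effect; nearly all actives have a fitted effect of over 40% in size; top concentration of the series not given in the record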
Target sequence (P25779 123-467 limits assumed): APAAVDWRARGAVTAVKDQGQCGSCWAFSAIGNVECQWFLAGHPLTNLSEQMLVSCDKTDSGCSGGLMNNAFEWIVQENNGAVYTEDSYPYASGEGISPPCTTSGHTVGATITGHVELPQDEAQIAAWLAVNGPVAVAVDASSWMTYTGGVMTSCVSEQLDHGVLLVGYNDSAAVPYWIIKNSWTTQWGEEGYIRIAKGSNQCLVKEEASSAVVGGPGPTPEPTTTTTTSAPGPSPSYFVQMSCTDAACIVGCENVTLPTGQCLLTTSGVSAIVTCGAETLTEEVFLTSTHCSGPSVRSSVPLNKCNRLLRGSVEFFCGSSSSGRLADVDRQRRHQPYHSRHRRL
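Steps: dispense cruzain (1.5 nM final) in acetate buffer pH 5.5 with DTT and 0.01% Triton X-100; pin-transfer compounds; incubate 15 min RT; add Z-FR-AMC (2 uM final); read fluorescence every 30 s, using the 60 s intensity change.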
Cruzain inh noDet: blocks cruzain activity in detergent-free assay | P25779 | purified cruzain, Z-FR-AMC fluorescence, no detergent | Potency, µM, without a hit: max response, negative = inhibition, hits mostly inhibitors | actives 2.3% (n = 200,000); active = well fitted curve in the direction sought with a large enough effect; inconclusive = small, poorly fitted or top-dose-only effect, or another doubt; inactive = no such curve, though single readings can be large; an effect the other way counts as inactive or inconclusive;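 also: plate controls were enzyme without inhibitor for no effect and buffer without enzyme for full effect; nearly all actives have a fitted effect of over 40% in size; top concentration of the series not given in the record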
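Detergent-free condition (0.00005% Triton X-100) in acetate buffer pH 5.5 with DTT. 1.5 nM enzyme and compound were pre-mixed 15 min, then 2 uM Z-FR-AMC substrate added; reaction progress from fluorescence change between first and third reads (60 s).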
MARV entry inh: inhibitors of Marburg virus binding or cell entry; AID 540276; actives 1.8% (n = 300,000); Marburg virus pseudotyped entry inhibition, cell reporter; control for the full effect not named in the record; about a third of the inactives were read at about 46 µM; Potency, µM (top dose mostly 37.8 µM), for inactives: at the highest dose activity change, negative = inhibition, actives largely listed as inhibitors; active = well fitted inhibition curve with a large enough effect; inconclusive = small, poorly fitted or top-dose-only effect, or effect the other way; inactive = flat fitted curve, though single readings scatter; tested in HEK293 cells; about a fifth of its hits are not listed in these tables; also: % is scaled to controls: 0 for no effect and ±100 for the full control effect; luciferase read-out
SARS PLP yeast: blocks SARS-CoV papain-like protease in a yeast assay | S. cerevisiae expressing SARS-CoV PLpro, growth rescue; control for the full effect not named in the record | Potency, µM (titrated, usually from 32.9 µM), inactives show at the top dose activity, positive = growth rescue | actives 0.19% (n = 330,000) | AID 485353; also: 0% is about no effect; nearly all actives have a fitted effect of over 55% in size; growth read by luminescence after 48 h
Active calls of the source: *; ? = inconclusive; / = not tested or not shown; & = joins results of further samples; [ ] = remark or other dose. Unless noted, calls follow the shape of the dose curve; as a rule, active means well fitted rising curve with a large enough effect; inconclusive means small, poorly fitted or top-dose-only effect; inactive means no such curve, though single readings can be large or run the other way. Potency is read from the fitted curve at half-maximal effect.

The line under a structure holds: NS1 function inh | RE007 growth inh | 2A StopGo | LASV entry inh | Cruzain inh Det | Cruzain inh noDet | MARV entry inh | SARS PLP yeast
> NNC(=S)NC1CCCCCCCCCCC1
    -1% | -5% | 0% | / | / | / | / | 0%
> CCOC(=O)N1CCN(Cc2nc3cc(NC(=O)C(C)C)ccc3n2C)CC1
    -5% | 10% | -9% | ? | / | / | -1% | 0%
> Cc1cc(=O)[nH]c(SCC(=O)Nc2cccc3ccccc23)c1C#N
    18% | -6% | ? | -13% | 2.0% | 1% | -28% | -13%
> N#C/C(=N\Nc1ccc(S(=O)(=O)N2CCCCC2)cc1)C(N)=S
    1% | 4% | 18% | -26% | -4.5% | ? | 7% | -10%
> CC1=NN(c2ccccc2C(=O)O)C(=O)C1N=Nc1ccccc1 (stereo not given)
    ? | 2% | 35%[activator] | / | / | / | / | 2%
> Cc1ccc(S(=O)(=O)Oc2cccc(/C=N/Nc3ccc(C(=O)O)cc3)c2)cc1
    3% | 5% | -1% | 18%[46.1 µM] | / | / | ? | 1%
> Cn1ncc(N2CCN(S(=O)(=O)c3ccc(Br)cc3)CC2)c(Cl)c1=O
    / | -10% | ? | ? | / | / | ? | 1%
> CCN(CC)c1cc(C)c2cc(NC(=O)c3ccccc3Cl)ccc2n1
    / | / | 1% | -29%[46.1 µM] | -7.7% | 11% | ? | /
> Cc1cccc(C)c1NC(=O)N1C2CCCC1CC(NC(=O)C(C)(C)C)C2 (stereo not given)
    -7% | 8% | 0% | -1% | 3.0% | 10% | 3% | -5%
> Cc1ccccc1SCC(=O)Nc1cccc(C#N)c1
    -104% | 1% | 15% | -13% | -6.3% | 4% | -21% | -3%
> COc1ccc(/C=C(\NC(=O)c2ccc([N+](=O)[O-])cc2)C(=O)NCCCN2CCOCC2)cc1
    / | -16% | 3% | -4% | / | / | -10%[46.1 µM] | 0%
> Cc1ccc(C)c(S(=O)(=O)NNC(=O)Nc2ccccc2Cl)c1
    18% | 1% | 18% | / | / | / | / | 3%
> Cc1ccc(NC(=O)c2cnn(-c3ccccc3)c2C)cc1C
    -43% | 5% | -41% | 3.2µM* | / | / | ? | -23%
> COc1ccc(-c2csc(NC(=O)C3CCN(C(=O)c4ccc(F)cc4)CC3)n2)cc1OC
    -1% | 7% | 35µM* | 16µM* | / | / | ? | -4%
> O=C(CSc1nc(=O)n(CCN2CCOCC2)c2c1CCC2)Nc1ccccc1
    / | / | -11% | 4%[46.1 µM] | -2.6% | 9% | / | /
> COCCN(C(=O)c1oc2ccccc2c1COC)c1c(N)n(CC(C)C)c(=O)[nH]c1=O
    / | -9% | -13% | 0% | / | / | ? | -7%
> Cc1ccc(N(C(=O)c2cc3ccccc3oc2=O)C2C=CS(=O)(=O)C2)cc1 (stereo not given)
    -6% | 32% | -1% | ? | -4.2% | -1% | 21% | 1%
> Cc1ccc(S(=O)(=O)n2nc(C)c(S(=O)(=O)N3CCC(C)CC3)c2C)cc1
    / | / | 22% | 36%[46.1 µM] | 0.5% | 21% | / | /
> S=c1nc(-c2ccccc2)n(Cc2ccco2)c2c1CCCC2
    0% | / | / | / | -9.5% | -1% | / | -4%
> COc1ccccc1NC(=O)C(C)OC(=O)CCNS(=O)(=O)c1ccc(C)c(C)c1 (stereo not given)
    / | 5% | 0% | 0% | / | / | -9% | -1%
> Cc1ccccc1NS(=O)(=O)c1ccc(OCC(=O)N2CCN(C)CC2)cc1
    4% | -7% | -5% | 0% | / | / | 24% | 5%
> COC(=O)c1ccc(C23CC4(C2)[C@H](CN(Cc2cccnc2)[C@@H]4c2ccccc2)C3c2ccccc2)cc1 (stereo not given in full)
    -2% | 6% | -29% | / | -2.1% | -9% | / | -6%
> CC(C)CCn1c(CN(C)Cc2ccccc2)nc2c1c(=O)n(C)c(=O)n2C
    -14% | 1% | 40µM* | ? | 4.1% | ? | ? | -1%
> O=C(CNCC1CCCCC1)Nc1ccc(OC(F)(F)F)cc1
    / | -12% | ? | 4% | / | / | 6%[46.1 µM] | -10%
> Cc1cc(N2CCC(C(=O)NC3CCCCC3)CC2)nc(-c2ccccc2)n1
    -38% | 2% | ? | -4% | -26% | ? | -7% | 2%
> N#Cc1cccc(C#N)c1N1CCC(C#N)CC1
    / | 4% | -2% | 15% | / | / | -25%[46.1 µM] | 6%
> NS(=O)(=O)c1ccc(CCNC(=O)C2CCCN2C(=O)OCc2ccccc2)cc1 (stereo not given)
    2% | 5% | -23% | 2% | 0.7% | -12% | 9%&0% | 1%
> CCn1c(N2CCN(CC(=O)c3ccc(OC)cc3)CC2)nc2ccccc21
    -13% | -15% | -10% | 12% | -0.2% | -13% | 1% | 2%
> CC(C)[C@H](NC(=O)[C@@H]1Cc2ccccc2CN1C(=O)OC(C)(C)C)C(=O)NCC1CCC(C(=O)O)CC1 (stereo not given in full)
    2% | -10% | -3% | / | / | / | / | 1%
> CCCCCCC(=O)Nc1ccc(C(=O)N/N=C/c2cccnc2)cc1
    6% | 0% | -23% | -1% | 4.7% | 12% | -19% | -5%

2 compounds picked at random from those above:
The line under a structure holds: NS1 function inh | RE007 growth inh | 2A StopGo | LASV entry inh | Cruzain inh Det | Cruzain inh noDet | MARV entry inh | SARS PLP yeast
> COc1ccccc1NC(=O)C(C)OC(=O)CCNS(=O)(=O)c1ccc(C)c(C)c1 (stereo not given)
    / | 5% | 0% | 0% | / | / | -9% | -1%
> S=c1nc(-c2ccccc2)n(Cc2ccco2)c2c1CCCC2
    0% | / | / | / | -9.5% | -1% | / | -4%

(further entries)
The line under a structure holds: NS1 function inh | RE007 growth inh | 2A StopGo | LASV entry inh | Cruzain inh Det | Cruzain inh noDet | MARV entry inh | SARS PLP yeast
> O=c1ccc(-c2ccc(S(=O)(=O)N3CCN(c4ccccc4)CC3)o2)n[nH]1
    7% | 6% | -3% | 18%[46.1 µM] | / | / | -4%[46.1 µM] | -1%
> CCc1cc(=O)n2[nH]c(C)c(-c3ccc(OC)cc3)c2n1
    18% | -7% | 6% | / | / | / | / | -3%
> COc1cc(NC(=O)CSc2nc(C)c(C)c(C)n2)cc(OC)c1
    / | 18% | -11% | 1% | / | / | 36%[46.1 µM] | -2%
> CCOC(=O)Oc1ccc2c(=O)c(Oc3cc(C)cc(C)c3)coc2c1
    -121% | -8% | -17% | -20% | -4.6% | -5% | -13% | -38%
> N#CCC(=N)N1CCN(c2ccccc2)CC1
    0% | 9% | -3% | -6% | -2.6% | -4% | ? | -5%
> CC1CCN(c2ccc(/C=N\Nc3nncn3N)cc2[N+](=O)[O-])CC1
    -5% | -30% | -18% | ? | -9.5% | 25µM* | ? | -19%
> CC(=O)Nc1nnc(SCC(=O)c2ccc3c(c2)Cc2ccccc2-3)s1
    9% | -14% | 10% | ? | -0.1% | 12% | ? | 4%
> CCCNc1nc(OC)nc(N2CC3CC(C2)c2cccc(=O)n2C3)n1 (stereo not given)
    / | 5% | -15% | 18%[46.1 µM] | / | / | 2%[46.1 µM] | 0%
> O=c1c(-c2ccc(F)cc2)coc2c3c(ccc12)OCCO3
    -8% | 0% | / | 0% | -1.2% | ? | 27% | -1%
> CC(=O)Nc1ccccc1-c1nc2ccccc2n(CC(=O)Nc2ccc(C)c(Cl)c2)c1=O
    / | / | -23% | ? | -0.5% | 7% | -10%[46.1 µM] | /
> CCOC(=O)c1ccc(NC(=O)CN2CCN(Cc3ccccc3)CC2)cc1
    -1% | -8% | -5% | 3% | / | / | ? | 0%
> Cc1ccc(C(=O)N2CCc3cc4c(cc3C2C)OCCCO4)cc1 (stereo not given)
    -6% | -1% | -29% | / | / | / | / | -11%
> COc1ccc(-c2cn3cc(C(F)(F)F)cc(Cl)c3n2)cc1
    -7% | -18% | 61%[activator] | ? | / | / | ? | 0%
> CCOc1ccccc1N=C1SC(CC(=O)Nc2ccc(OC)cc2OC)C(=O)N1CCC1=CCCCC1 (stereo not given)
    5% | 2% | 0% | ? | -4.1% | ? | ? | 6%
> O=c1c2c3c(sc2ncn1/N=C/c1ccccc1)CCCC3
    -3% | -20% | 54%[activator] | -7% | -5.1% | -6% | ? | -3%
> NC(=O)COC(=O)c1ccc2c(c1)S(=O)(=O)c1ccccc1C2=O
    -3% | -13% | 34%[activator] | -1% | / | / | -6%[46.1 µM] | -18%
> O=C(Nc1ccc(N2CCCCC2)cc1)c1ccccn1
    / | ? | 2.8µM* | 0.52µM* | / | / | 0.46µM* | -4%
> COc1ccc(N2CCN(C(=O)c3nc(SC)ncc3Cl)CC2)cc1
    / | / | -18% | 8%[46.1 µM] | -0.5% | -9% | 2%[46.1 µM] | /
> Brc1ccc(Nc2c3c(nc4nncn24)CCC3)cc1
    / | / | ? | -16%[46.1 µM] | -2.3% | 8% | -9%[46.1 µM] | /
> Cc1cccc(N2CC(C(=O)Nc3nnc(SCc4ccccn4)s3)CC2=O)c1 (stereo not given)
    ? | 5% | -2% | / | / | / | / | 1%
> CCOC(=O)/C(N=Nc1cc(C(=O)O)cc(C(=O)O)c1)=C(\O)CCl
    14% | 4% | -11% | 11% | -4.7% | 0% | 4% | 4%
> COc1ccc(CN2C(=NC(=O)COc3ccccc3)SC3CS(=O)(=O)CC32)cc1 (stereo not given)
    2% | -11% | -20% | 0%[46.1 µM] | / | / | 4%[46.1 µM] | 2%
> COc1ccc(Nc2nc(N3CCCCC3)nc3ccccc23)c(OC)c1
    -117% | -14% | -5% | -20% | -2.0% | -13% | ? | 3%
> COc1ccc(C)cc1NC(=S)NNC(=O)c1c(Br)cnn1C
    -4% | -5% | 1% | -21%[46.1 µM] | / | / | -29%[46.1 µM] | -2%
> CCc1nn2c(=O)cc(COC(=O)c3cccc(NC(=O)COc4ccccc4)c3)nc2s1
    / | / | 17% | ? | 0.7% | -3% | / | /
> COc1ccc(C)cc1-n1nnnc1SCn1nnc2ccccc2c1=O
    -10% | -2% | -16% | ? | -1.2% | -8% | -25% | -2%
> COC(=O)Cc1nnc(SCC(=O)Nc2ccccc2)c2ccccc12
    28% | -7% | -21% | / | / | / | / | ?

This is a random part of the collection. Share with any hit: about 4.6%.
